Assay outcomes from PubChem.
TRPML1 agonist: activates the human TRPML1 channel. Q9GZU1. TRPML1-expressing cells, Ca2+ dye fluorescence, FDSS; host cell line not named in the record; reference of the full effect not given here. activation, % (no concentration beside the values). hit rate 0.12% among 410,000. AID 624414; in the data active = activation above about 50%; inconclusive = about 30% to 50%; inactive = below about 30%; note: 0% is about no effect; the text of the record puts the active cut at 80%
Target sequence (Q9GZU1 whole entry, looked up): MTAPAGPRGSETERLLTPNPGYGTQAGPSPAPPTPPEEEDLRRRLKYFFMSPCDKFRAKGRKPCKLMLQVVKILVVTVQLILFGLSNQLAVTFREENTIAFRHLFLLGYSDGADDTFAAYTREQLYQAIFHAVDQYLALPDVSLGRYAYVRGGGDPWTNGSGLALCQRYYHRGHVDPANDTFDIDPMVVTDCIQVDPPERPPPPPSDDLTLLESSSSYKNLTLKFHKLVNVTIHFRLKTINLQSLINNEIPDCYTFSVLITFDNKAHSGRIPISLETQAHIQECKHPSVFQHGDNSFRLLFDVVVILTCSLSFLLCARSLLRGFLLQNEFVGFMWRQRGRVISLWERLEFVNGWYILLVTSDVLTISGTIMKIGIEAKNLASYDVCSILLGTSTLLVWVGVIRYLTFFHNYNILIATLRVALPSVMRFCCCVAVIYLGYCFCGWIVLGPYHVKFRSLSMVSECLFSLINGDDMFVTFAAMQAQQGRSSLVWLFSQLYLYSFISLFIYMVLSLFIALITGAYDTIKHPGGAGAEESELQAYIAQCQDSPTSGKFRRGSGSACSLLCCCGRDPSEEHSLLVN
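Agonist activity was taken from a 110 s kinetic Ca2+ dye read on the FDSS after pinning compounds onto TRPML1-DL cells. The cells were seeded at 1,500/well with Tet inducer, incubated about 16 h, then dye-loaded at room temperature.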
Six1-Eya2 blk: Six1/Eya2 interaction inhibition | Q15475+O00167 | AlphaScreen GST-Six1/His-Eya2 binding, biochemical; stronger effect = lower value; control for the full effect not named in the record | activity change, % (no concentration beside the values) | hit rate 0.56% among 360,000 | AID 651725; in the data active = activity change below about -65%; inconclusive = about -30% to -65%; inactive = above about -30%; note: % is set by controls: 0 for no effect and ±100 for the full control effect; compound concentration not given in the record
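Compounds are tested against tagged Six1 and Eya2 proteins bridged by glutathione donor and nickel acceptor beads; after a one-hour incubation at 37 °C without light, AlphaScreen emission is recorded.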
D2 ag: agonists of human D2 dopamine receptor (beta-arrestin); hit rate 0.084% among 360,000; P14416; activation, % (test concentration not listed); DiscoveRx PathHunter D2 beta-arrestin, luminescence, 90 min; 100% = 57 uM dopamine signal; in the data active = activation above about 40%; inconclusive = about 15% to 40%; inactive = below about 15%; note: compound concentration not given in the record; the text of the record calls up to 30% inactive
Target sequence (P14416 whole entry, looked up): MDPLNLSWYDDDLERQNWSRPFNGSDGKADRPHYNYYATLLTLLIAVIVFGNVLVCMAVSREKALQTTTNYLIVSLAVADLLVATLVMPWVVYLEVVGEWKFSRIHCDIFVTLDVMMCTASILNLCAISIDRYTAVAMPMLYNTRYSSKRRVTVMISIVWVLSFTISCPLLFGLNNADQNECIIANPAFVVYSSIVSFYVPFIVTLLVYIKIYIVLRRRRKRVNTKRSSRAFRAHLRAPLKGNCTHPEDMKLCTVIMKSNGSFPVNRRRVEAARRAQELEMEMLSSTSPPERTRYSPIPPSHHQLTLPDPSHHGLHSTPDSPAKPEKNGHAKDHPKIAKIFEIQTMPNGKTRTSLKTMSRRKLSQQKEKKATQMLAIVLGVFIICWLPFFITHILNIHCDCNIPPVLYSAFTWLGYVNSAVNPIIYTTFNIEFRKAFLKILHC
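Agonist mode: compounds alone added to overnight-plated D2 PathHunter cells for 90 min at 37 C, with 57 uM final dopamine (EC100) defining full response. Beta-arrestin recruitment detected by chemiluminescent reagent, read after 1 h at ambient temperature.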
TRPML1 inh: inhibitors of human TRPML1 channel; activity change, negative = inhibition, % (test concentration not listed); hit rate 0.02% among 390,000; Q9GZU1; AID 624415; TRPML1-inducible cells, Ca2+ dye fluorescence, FDSS; stronger effect = lower value; inhibition of EC80 agonist-evoked calcium signal; in the data active means activity change below about -50%; inconclusive means about -30% to -50%; inactive means above about -30%;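 note: stimulus is agonist 54-4 at its EC80 concentration; % is set by controls: 0 for no effect and ±100 for the full control effect; compound concentration not given in the record; the text of the record puts the active cut at -80%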
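Tet-induced TRPML1-DL cells loaded with Ca8 no-wash calcium dye were read kinetically on FDSS. Compound addition was followed by EC80 agonist 54-4 (4 uM final); inhibition was read over 110 s.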
PINK1 expr mod: changes PINK1 expression | PINK1 immunofluorescence, high-content cytometry, 24 h | AID 624263 | Potency, µM (doses to about 76.6 µM), for inactives: at the highest dose activation (PINK1 increase), hits mostly activators | hit rate 0.2% among 410,000; active = well fitted activation curve with a large enough effect; inconclusive = small, poorly fitted or top-dose-only effect; inactive = flat fitted curve, though single readings scatter; cell line not stated here;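 note: potency is the fitted concentration of half-maximal effect; % of control where 0% means no effect; nearly all actives have a fitted effect of over 65% in size; a mitochondrial uncoupler was the plate control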
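Stable cell line treated 24 h with compounds at 5 concentrations (CCCP controls), then fixed and immunostained for PINK1 plus nuclear and cell stains; PINK1 immunofluorescence quantified by laser-scanning microplate cytometry.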
CtBP-E1A blk: inhibitors of CtBP/E1A interaction. AlphaScreen GST-E1A/His-CtBP binding, 1536-well; stronger effect = lower value; control for the full effect not named in the record. activity change, % (concentration not given with the values). hit rate 0.49% among 340,000. AID 651724; in the data active means activity change below about -65%; inconclusive means about -30% to -65%; inactive means above about -30%; note: % is set by controls: 0 for no effect and ±100 for the full control effect
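In 5 uL wells, 23 nL compound meets equimolar GST-E1A and His-CtBP (5X stock 125 nM each) for 2 h, 37 °C. Beads (5X, 50 ug/mL) then 1 h, 37 °C, dark.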
Numbers without * were called inactive; ? = inconclusive; . = no result given; & = joins results of further samples; [ ] = dose if it differs, or a comment.

SMILES	TRPML1 agonist	Six1-Eya2 blk	D2 ag	TRPML1 inh	PINK1 expr mod	CtBP-E1A blk
CCn1c(SCc2ccccc2)nnc1-c1ccc(S(=O)(=O)N2CCCCC2)cc1	1.3	-1	-2.1	9	-0.4%	6
COc1ccc(CCNS(=O)(=O)c2ccc(Br)s2)cc1	2.4	9	-3.0	4	0.8%	12
COc1ccccc1N1CCN(C(=O)c2ccc(-c3nc4ccccc4s3)o2)CC1	3.9	-25	2.0	-17	19%	-16
COc1ccccc1CC(=O)NN1C(=O)c2ccccc2C1=O	-0.5	13	-0.6	9	-0.6%	3
CCN(CC)CC(=O)Nc1sc(C)c(C)c1C(=O)c1ccc(C)cc1	0.2	?	-4.8	15	10%	2
CC(=O)c1ccc(NC(=O)Cn2c(=O)cc(C)c3c(C)nn(-c4cccc(F)c4)c32)cc1	0.9	.	.	13	0.1%	.
CCOC(=O)c1cc(-c2ccccc2)n(CCC(=O)N2CCN(c3ccccn3)CC2)c1C	3.2	-25	-3.6	10	0.9%	-26
Brc1ccc2nc(CSc3ncn[nH]3)cn2c1	-0.4	15	-1.2	-7	-1.2%	-2
CC1=C(C(=O)N(C)C)CC(CC(=O)NCCCCc2ccccc2)C(=O)N1CCCN1CCCC1=O (stereo not drawn)	0.1	2	-7.6	2	0.4%	6
O=C(Cn1c(=O)sc2ccccc21)Nc1ccc(O)cc1	0.7	4	1.3	14	-2.3%	0
Cc1c(N=C2NC(=O)C(CC(=O)Nc3ccc(Cl)cc3)S2)c(=O)n(-c2ccccc2)n1C (stereo not drawn)	-0.2	-3	-1.8	6	-1.2%	-6
Cc1ncc(CN2CCN(CCC(C)C)C(CCO)C2)s1 (stereo not drawn)	-1.1	1	-1.4	-2	0.8%	.
COc1cccc(NC(=O)CN2C(=O)C3(OCCCO3)c3ccccc32)c1	1.3	-1	-2.9	-7	1.7%[38.3 µM]	4
CCCCC1CC(CSC(=N)N)OC1=O (stereo not drawn)	3.3	1	-2.1	-10	-2.6%	6
Cn1cccc1/C=C(/C#N)C(N)=S	0.0	0	-12	-12	4.7%	3
COc1cccc(CN2CC(C(=O)NCCCCc3ccccn3)CCC2=O)c1 (stereo not drawn)	1.3	2	3.7	-2	0.4%	6
Cc1ccccc1OCC(=O)NCCNC(=O)c1ccccn1	0.4	-1	-3.8	-13	2.7%	3
COc1cc(/C=N/NC(=O)c2c(-c3ccccc3)noc2C)cc(OC)c1OC	-0.5	-2	7.3	-1	2.0%	3
Cn1c(=O)n(Cc2ccccc2)c(=O)c2c1nc1n2CCCN1C1CCCCC1	0.5	4	10	-9	1.0%	-6
Cc1ccccc1COC(=O)CN1C(=O)NC2(CCCC2)C1=O	0.5	1	-2.5	-1	-0.6%	5
Cc1nc2ccc(NC(=O)NCCO)cc2s1	-0.4	-3	-4.0	-7	-0.8%	6
Cc1nn(C2CCS(=O)(=O)C2)c2nc(C3CC3)cc(C(=O)Nc3ccc(C(N)=O)cc3)c12 (stereo not drawn)	0.5	-4	-1.8	-2	0.5%	-18
Cc1ccoc1C(=O)N1CCN(C(=O)c2occc2C)CC1	-0.6	7	4.0	-3	-0.1%	31
Cc1cccc(NC(=O)c2cc(S(=O)(=O)N3CCCCC3)c[nH]2)c1C	-1.3&2.4	2	-5.3	3&13	2.0%&-0.7%	2
CCCn1nc(C(=O)OCc2nc(N)nc(Nc3ccccc3C)n2)c2ccccc2c1=O	3.6	6	1.0	-10	-0.5%	-2
CN1CCN(C(=O)CCN2C(=O)/C(=C/c3cccc(Br)c3)SC2=S)CC1	1.5	5	-2.7	-12	2.8%	17
CS(=O)(=O)c1ccc2nc(NC(=O)Nc3ccccc3F)sc2c1	-0.6	0	-2.5	-14	1.1%	.
CS(=O)(=O)N1CCCCC1c1cc(C(=O)Nc2ccccc2)no1 (stereo not drawn)	-0.7	-11	-4.3	.	-0.3%	-10
c1ccc(N(c2ccccc2)c2nc(N3CCCC3)nc(-n3ccnc3)n2)cc1	0.1	-2	-7.0	5	-0.1%[38.3 µM]	-7
c1ccc(-c2ccc(C3CCCN3)cc2)cc1 (stereo not drawn)	.	2	-4.5	.	-1.0%	-4
COc1ccc(CN2C[C@H]3CON(C)[C@H]3C[C@H]2c2ccc(-c3ccccc3)cc2)cc1	0.3	-10	-5.8	.	2.9%	?
CC(C)NC(=O)NC(=O)CSc1ncccn1	1.1	0	-19	-7	-0.2%	0
Cc1cccc(NS(=O)(=O)c2c(C)nc3sccn3c2=O)c1C	0.7	.	.	-15	1.0%	.
O=C(Oc1ccc(-c2nnco2)cc1)c1cc(S(=O)(=O)N2CCOCC2)ccc1F	0.0	-15	-8.7	-9	5.4%	-4
COc1cc2c(cc1OC)-c1cc3ccc(OC)c(OC)c3c[n+]1CC2	-0.1	4	-2.1	11	0.2%	0
CCCCc1nnc(SCc2cc(=O)c3cc(F)ccc3[nH]2)n1C	1.5	.	.	1	2.9%	.
Cc1ccc(CN2CCN(Cc3ccc4ncccc4c3)CC2CCO)cc1 (stereo not drawn)	-0.3	-2	-2.2	-4	-1.2%	10
CCCCn1c(=N)c(S(=O)(=O)c2ccc(C)cc2)cc2c(=O)n3cc(C)ccc3nc21	0.7	.	.	32	1.0%	.
CCC(CC)NC(=O)c1oc2ccccc2c1COc1ccccc1	7.7	26	-0.4	10	6.2%	32
CC(CCCC(C)(C)O)NC(=O)c1ccc(OC2CCN(C(=O)C3CC3)CC2)cc1 (stereo not drawn)	-0.7	-13	-0.7	12	-0.9%	11

Just TRPML1 agonist and CtBP-E1A blk (6 entries from above):
canonical_smiles,TRPML1 agonist,CtBP-E1A blk
O=C(Oc1ccc(-c2nnco2)cc1)c1cc(S(=O)(=O)N2CCOCC2)ccc1F,0.0,-4
CCCCn1c(=N)c(S(=O)(=O)c2ccc(C)cc2)cc2c(=O)n3cc(C)ccc3nc21,0.7,.
CC(CCCC(C)(C)O)NC(=O)c1ccc(OC2CCN(C(=O)C3CC3)CC2)cc1 (stereo not drawn),-0.7,11
Cc1cccc(NS(=O)(=O)c2c(C)nc3sccn3c2=O)c1C,0.7,.
COc1cc2c(cc1OC)-c1cc3ccc(OC)c(OC)c3c[n+]1CC2,-0.1,0
CCCCc1nnc(SCc2cc(=O)c3cc(F)ccc3[nH]2)n1C,1.5,.

Remaining list, next part:
SMILES	TRPML1 agonist	Six1-Eya2 blk	D2 ag	TRPML1 inh	PINK1 expr mod	CtBP-E1A blk
COc1cccc(OC(=O)CSc2nnc(-c3ccccc3OC)o2)c1	3.1	.	.	10	-0.5%	.
CN(C)CCN1CCN(C2CN(C3CCCC3)S(=O)(=O)C2)CC1 (stereo not drawn)	-0.5	-2	0.2	.	-0.1%	7
Nc1nonc1-n1nnc(C(=O)N/N=C/c2ccc(Br)cc2)c1CN1CCOCC1	-0.7	-7	-4.3	4	7.1%	.
CC(C)C[C@H]1CN(CCCC[C@H]2CNC(=O)C(=O)N2Cc2ccccc2)C(=O)C(=O)N1CCc1ccc(O)cc1	-0.1	13	.	.	1.2%	23
Nc1c(-c2cccs2)nc2ccccn12	-0.6	-7	6.0	.	0.2%	-1
COc1ccc(NC(=O)CSC2=C(C#N)C(c3ccco3)C3=C(CCCC3=O)N2)c(OC)c1 (stereo not drawn)	0.4	-25	-0.5	39	0.6%	-22
COC(=O)C(CC(=O)c1ccc(C)cc1)n1nc(C)cc1C (stereo not drawn)	-0.7	0	-1.4	-1	0.5%	.
CN(Cc1ccccc1)Cc1nc2c([nH]1)c(=O)n(C)c(=O)n2C	-0.1	4	-0.8	30	-0.7%	0
CN(Cc1ccccc1)C(=O)NC1CCCCC1	-0.9	0	-3.2	-1	23%[38.3 µM]	2
O=[N+]([O-])c1ccccc1OCCCN1CCOCC1	0.7	3	-3.5	14	1.2%[38.3 µM]	1

A second format for some results above.
SMILES,TRPML1 agonist,Six1-Eya2 blk,D2 ag,TRPML1 inh,PINK1 expr mod,CtBP-E1A blk
O=[N+]([O-])c1ccccc1OCCCN1CCOCC1,0.7,3,-3.5,14,1.2%[38.3 µM],1
Nc1nonc1-n1nnc(C(=O)N/N=C/c2ccc(Br)cc2)c1CN1CCOCC1,-0.7,-7,-4.3,4,7.1%,.
COc1cccc(OC(=O)CSc2nnc(-c3ccccc3OC)o2)c1,3.1,.,.,10,-0.5%,.

(next part)
SMILES	TRPML1 agonist	Six1-Eya2 blk	D2 ag	TRPML1 inh	PINK1 expr mod	CtBP-E1A blk
Cc1ccccc1CNC(=O)CCCC(=O)n1nc(C)c2ccccc21	0.6	0	-2.2	8	-0.6%	-1
COc1ccc(OC)c2sc(NNC(=O)COc3ccccc3)nc12	2.3	-3	4.2	23	2.7%	3
OCCN(CCO)CC(O)COCCC12CC3CC(CC(C3)C1)C2 (stereo not drawn)	1.0	2	-3.4	35	3.9%	8
O=C1CC(N2CCC(O)CC2)C(=O)N1c1ccc(Br)cc1 (stereo not drawn)	1.1	12	-1.0	2	0.3%	12
O=C(Nc1ccncc1)c1ccc2ncsc2c1	-0.2	-5	-5.7	2	-1.3%	-2
CCOC(=O)C(C)Sc1ncc(OC)c(Sc2ccc(Cl)cc2)n1 (stereo not drawn)	0.3	23	-5.0	-2	?	46
O=C(C1CC(=O)N(c2ccc3c(c2)OCCO3)C1)N1CCN(Cc2ccccc2)CC1 (stereo not drawn)	0.0	-2	0.5	34	1.3%	.
OCCOCCOCCn1c2ccccc2c2ccccc21	-0.1	8	-1.2	-2	1.0%	0
Cc1onc(-c2ccccc2)c1C(=O)N/N=C/c1c[nH]c2ccccc12	0.5	-2	1.2	-6	3.5%	6
CCC(=O)N(c1ccc(F)cc1)C1C=CS(=O)(=O)C1 (stereo not drawn)	2.3	8	-1.4	10	.	8
O=c1[nH]c(C2CCCN(S(=O)(=O)c3ccccc3)C2)nc2c1nnn2Cc1ccccc1 (stereo not drawn)	2.3	-11	-2.5	-1	13%[38.3 µM]	-14
NC(=S)N/N=C/c1ccc(-c2cc(Cl)cc(Cl)c2)o1	0.2	-9	-2.5	-6	-2.3%	-7
CC(=O)Nc1c(C(=O)O)oc2ccccc12	-0.7	-1	-1.8	-4	-3.8%[38.3 µM]	0
CCOC(=O)[C@]12CCC=C1N(CCC1=CCCCC1)C(=O)[C@H](CC(=O)NCc1cccc3ccccc13)C2	-0.1	1	.	.	0.9%	-4
CC(NC(=O)c1ccc2c(c1)OCO2)C(c1cccs1)N1CCOCC1 (stereo not drawn)	-0.1	3	0.0	-7	-5.0%[38.3 µM]	15
COc1ccccc1NC(=O)C1=C(C)Nc2ncnn2C1c1cccn1C (stereo not drawn)	0.9	.	.	-11	?	.
O=C(Cc1coc2cc3c(cc12)CCC3)NCC1(N2CCCCC2)CCCCC1	0.6	-1	-3.1	0	1.5%	-4
COC(=O)c1ccc(CNC(=O)COC(=O)c2cc(Cl)nc(Cl)c2)cc1	-0.3	-8	-0.2	-6	-1.2%	-6

Some of these compounds in order of the CtBP-E1A blk value, ascending:
Molecule	CtBP-E1A blk
NC(=S)N/N=C/c1ccc(-c2cc(Cl)cc(Cl)c2)o1	-7
O=C(Cc1coc2cc3c(cc12)CCC3)NCC1(N2CCCCC2)CCCCC1	-4
CC(=O)Nc1c(C(=O)O)oc2ccccc12	0
